2A StopGo – High Throughput Screening for Foot and Mouth Disease Virus Antivirals; 410,000 tested, 1.2% active; Potency, µM (top dose mostly 57.9 µM), for inactives: top-dose signal change, negative = less light; human cells with a luciferase reporter of 2A StopGo recoding; control for the full effect not named in the record; active = well fitted falling curve with a large enough effect; inconclusive = small, poorly fitted or top-dose-only effect; inactive = no such curve, though single readings can be large or run the other way; tested in HEK293T cells; also: % is scaled to controls: 0 for no effect and ±100 for the full control effect; nearly all actives have a fitted effect of over 45% in size; luciferase light after 4 h
NS1 inh – qHTS Assay for Inhibitors of Influenza NS1 Protein Function; S. cerevisiae slowed by influenza A NS1, growth recovery by OD600; 270,000 tested, 0.4% active; Potency, µM (series often up to 46.1 µM), inactives show at the highest dose activity, positive = more growth; active means well fitted rising curve with a large enough effect; inconclusive means small, poorly fitted or top-dose-only effect; inactive means no such curve, though single readings can be large or run the other way; also: nearly all actives have a fitted effect of over 50% in size
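Growth recovery, yeast-based: influenza A NS1 expressed in S. cerevisiae causes slow growth, and suppressors are detected by OD600. The parent strain without NS1 is used as positive control.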
MARV entry inh – qHTS for inhibitors of binding or entry into cells for Marburg Virus. Marburg virus pseudotyped entry inhibition, cell reporter; control for the full effect not named in the record; about a third of the inactives were read at about 46 µM. 300,000 tested, 1.8% active. Potency, µM (doses to about 37.8 µM), without a hit: at the top dose activity change, negative = inhibition, most hits filed as inhibitors. AID 540276, 2011; active = well fitted inhibition curve with a large enough effect; inconclusive = small, poorly fitted or top-dose-only effect, or effect the other way; inactive = flat fitted curve, though single readings scatter; tested in HEK293 cells; about a fifth of its hits are not listed in these tables; also: % is scaled to controls: 0 for no effect and ±100 for the full control effect; luciferase read-out
SARS PLpro yeast – qHTS of Yeast-based Assay for SARS-CoV PLP; AID 485353, 2010; 330,000 tested, 0.19% active; Potency, µM (highest dose often 32.9 µM), for inactives: at the top dose activity, positive = growth rescue; S. cerevisiae expressing SARS-CoV PLpro, growth rescue; control for the full effect not named in the record; active means well fitted rising curve with a large enough effect; inconclusive means small, poorly fitted or top-dose-only effect; inactive means no such curve, though single readings can be large or run the other way; also: 0% is about no effect; nearly all actives have a fitted effect of over 55% in size; growth read by luminescence after 48 h
RE007 growth inh – qHTS Assay for Inhibitors of the HIV-1 protein Vpr. S. pombe RE007 Vpr strain, BacTiter-Glo ATP luminescence, 24 h; control for the full effect not named in the record. Potency, µM (highest dose often 92.2 µM), for the others: at the highest dose activity change, negative = less growth. 360,000 tested, 0.21% active; active = well fitted falling curve with a large enough effect; inconclusive = small, poorly fitted or top-dose-only effect; inactive = no such curve, though single readings can be large or run the other way;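 also: % is scaled to controls: 0 for no effect and ±100 for the full control effect; nearly all actives have a fitted effect of over 50% in size; the assay follows cell death caused by Vpr and the record does not say whether a fall means rescue or toxicity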
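Fission yeast RE007 carrying one integrated HIV-1 vpr copy, seeded at OD 0.01 in PMG+AL medium with 23 nL pinned compound. Grown 24 h at 30 degrees; viability read by BacTiter-Glo luminescence after 5 min.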
Cruzain inh Det – qHTS Assay for Promiscuous and Specific Inhibitors of Cruzain (with detergent); Potency, µM, inactives show max response, negative = inhibition, hits mostly inhibitors; 200,000 tested, 0.43% active; purified cruzain, Z-FR-AMC fluorescence, 0.01% Triton;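 also: plate controls were neutral wells for no effect and buffer without enzyme for full effect; nearly all actives have a fitted effect of over 40% in size; top concentration of the series not given in the record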
Target sequence (P25779 123-467 limits assumed): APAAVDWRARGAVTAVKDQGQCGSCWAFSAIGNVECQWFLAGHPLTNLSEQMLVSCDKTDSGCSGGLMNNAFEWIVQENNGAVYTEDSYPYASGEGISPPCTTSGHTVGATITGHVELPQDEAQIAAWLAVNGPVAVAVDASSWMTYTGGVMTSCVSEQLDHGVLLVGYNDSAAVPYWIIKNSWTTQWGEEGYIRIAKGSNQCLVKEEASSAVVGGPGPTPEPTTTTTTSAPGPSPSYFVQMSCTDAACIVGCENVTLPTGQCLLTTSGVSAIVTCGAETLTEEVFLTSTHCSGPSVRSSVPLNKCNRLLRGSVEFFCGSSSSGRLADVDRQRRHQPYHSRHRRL
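Purified cruzain (1.5 nM final) was preincubated with compounds for 15 min at room temperature in 100 mM sodium acetate pH 5.5, 5 mM DTT, 0.01% Triton X-100. Reaction started with 2 uM Z-FR-AMC; AMC fluorescence change over 60 s gave activity.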
Cruzain inh noDet – qHTS Assay for Promiscuous and Specific Inhibitors of Cruzain (without detergent). Cruzipain (Trypanosoma cruzi), P25779. purified cruzain, Z-FR-AMC fluorescence, no detergent. Potency, µM, for the others: max response, negative = inhibition, most hits filed as inhibitors. 200,000 tested, 2.3% active;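 also: plate controls were enzyme without inhibitor for no effect and buffer without enzyme for full effect; nearly all actives have a fitted effect of over 40% in size; top concentration of the series not given in the record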
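Purified cruzain at 1.5 nM, pre-incubated 15 min with compound at room temperature in 100 mM sodium acetate pH 5.5, 5 mM DTT, 0.00005% Triton X-100. Reaction started with 2 uM Z-FR-AMC; AMC fluorescence increase over 60 s gives rate.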
Lassa entry inh – qHTS for Inhibitors of binding or entry into cells for Lassa Virus. Potency, µM (highest dose often 37.9 µM), for the others: at the highest dose activity change, negative = inhibition, usual class: inhibitors. Lassa virus pseudotype entry inhibition, cell reporter; control for the full effect not named in the record. AID 540256, 2011. 300,000 tested, 1.2% active; active means well fitted inhibition curve with a large enough effect; inconclusive means small, poorly fitted or top-dose-only effect, or effect the other way; inactive means flat fitted curve, though single readings scatter; tested in HEK293 cells; also: % is scaled to controls: 0 for no effect and ±100 for the full control effect; nearly all actives have a fitted effect of over 50% in size; luciferase read-out
An asterisk follows results filed as active; ? = inconclusive; nt = no result given; [ ] = another dose, or the depositor's remark. Unless noted, calls follow the shape of the dose curve; as a rule, active = well fitted curve in the direction sought with a large enough effect; inconclusive = small, poorly fitted or top-dose-only effect, or another doubt; inactive = no such curve, though single readings can be large; an effect the other way counts as inactive or inconclusive. Potency is read from the fitted curve at half-maximal effect.

SMILES	2A StopGo	NS1 inh	MARV entry inh	SARS PLpro yeast	RE007 growth inh	Cruzain inh Det	Cruzain inh noDet	Lassa entry inh
N#Cc1c(C(F)(F)F)cc(-c2cccs2)nc1SCC(=O)Nc1ccc(F)cc1	?	nt	nt	nt	nt	-1.6%	?	-17%[46.1 µM]
CC1=C(C(=O)NC2CCCc3c2cnn3-c2ccc(F)cc2F)OCCO1 (stereo not given)	?	2%	nt	-4%	2%	nt	nt	nt
O=C(NCc1ccccn1)c1cccc(NS(=O)(=O)c2cccc(Cl)c2)c1	41%[activator]	-6%	?	-1%	-3%	-4.1%	-2%	0%
CCCn1c(=O)[nH]c(=O)c2c1nc(-c1ccc(OC(F)F)cc1)n2CCN1CCOCC1	-20%	-3%	-1%	?	10%	-1.5%	24%	14%
CCOC(=O)C1(Cc2cccc(Cl)c2)CCCN(C(=O)CCNC(C)=O)C1 (stereo not given)	7%	2%	1%	0%	0%	nt	nt	15%
O=C1NC(=O)N(c2ccccc2)C(=O)/C1=C\c1ccc2c3c(cccc13)CC2	nt	9%	nt	-13%	nt	-4.8%	24%	nt
CCCSc1nnc(NC(=O)CCc2ccccc2)s1	-3%	-5%	nt	-2%	7%	nt	nt	nt
COC(=O)Oc1ccc(/C=N/NS(=O)(=O)c2ccccc2)cc1OC	31%[activator]	9%	?	4%	11%	nt	nt	-26%[46.1 µM]
CN(C)S(=O)(=O)c1cccc(C(=O)NCCNC(=O)c2cccc(S(=O)(=O)N(C)C)c2)c1	-28%	0%	nt	0%	-18%	nt	nt	nt
CN(C)C(=O)c1cc(C(=O)c2ccccc2Br)c[nH]1	13%	2%	nt	0%	-16%	nt	nt	nt
CCCCN(CC)CCNC(=O)CN1C(=O)COc2ccc(S(=O)(=O)N3CCOCC3)cc21	-3%	nt	-5%[46.1 µM]	nt	nt	2.1%	-3%	4%[46.1 µM]
COc1cc(/C=C2\SC(=Nc3ccc(O)cc3)NC2=O)cc(OC)c1O	-18%	0%	-3%[46.1 µM]	-1%	2%	nt	nt	?
O=C(COc1ccc(Cl)cc1)Nc1cc(NC(=O)COc2ccc(Cl)cc2)cc(C(=O)O)c1	4%	9%	nt	6%	8%	nt	nt	nt
COC(=O)c1c(NC(=O)COC(=O)[C@@H](NS(=O)(=O)c2cccc(Cl)c2)C(C)C)sc2c1CCC2	-11%	25%	?	11%	1%	-10%	16µM*	-21%
Cc1cccc(NC(=O)NCC2CCN(c3ccc(S(=O)(=O)N4CCOCC4)cc3)CC2)c1	-6%	-2%	-3%[46.1 µM]	-15%	1%	nt	nt	-25%[46.1 µM]
CS(=O)(=O)Nc1ccc(C2=NN(C(=O)c3ccco3)C(c3ccccc3F)C2)cc1 (stereo not given)	-14%	nt	-12%	-1%	5%	nt	nt	-29%
COc1ccc(OC)c(Cc2nnc(CCC(=O)N3CCN(C4CCCC4)CC3)o2)c1	65%[activator]	0%	30%	4%	4%	nt	nt	20%
CC1CC(C)CN(S(=O)(=O)c2cc(C(=O)O)c(Cl)s2)C1 (stereo not given)	-11%	2%	?	8%	-7%	-2.1%	-2%	-5%
O=S(=O)(NCC1COc2ccccc2O1)c1ccc2ccccc2c1 (stereo not given)	27%	2%	4%	8%	18%	-8.7%	0%	2%
CN(C)c1ccc(/C=N/NC(=O)Cn2nnc3ccccc32)cc1	24%	-39%	2%	14%	-17%	-11%	7%	?
CCc1ccc(Oc2coc3cc(OC(=O)c4cc5ccccc5oc4=O)ccc3c2=O)cc1	33%[activator]	-1%	18%	1%	-4%	0.4%	4µM*	-12%
O=c1c2c3c(sc2nc2n1CCCC2)CCCC3	22%	-30%	?	-75%	28µM*	-6.4%	-4%	4%
CCOc1ccc(N2C(=O)NC(=O)/C(=C/c3cnc(SC)nc3)C2=O)cc1	-21%	nt	-4%[46.1 µM]	-2%	-14%	nt	nt	20%[46.1 µM]
CCc1ccc(CSc2nc(-c3ccccc3F)nc3c2Cc2c(CO)cnc(C)c2O3)cc1	-28%	nt	nt	nt	nt	-1.6%	7%	13%[46.1 µM]
CC(=O)NC(CCS(C)(=O)=O)C(=O)Nc1ccc(F)cc1Cl (stereo not given)	-16%	0%	17%	-2%	-10%	3.3%	2%	8%
SMILES	2A StopGo	NS1 inh	MARV entry inh	SARS PLpro yeast	RE007 growth inh	Cruzain inh Det	Cruzain inh noDet	Lassa entry inh
CCC(C)Nc1c([N+](=O)[O-])cc(C)cc1[N+](=O)[O-] (stereo not given)	-14%	11%	?	-3%	-5%	0.1%	-2%	14%
CC1Cc2ccccc2N1C(=O)CSc1nnc(Cn2nnc3ccccc32)n1C (stereo not given)	-17%	-11%	-6%	10%	-15%	6.5%	4%	0%
Cc1ccc(C(C)C)c(OCc2nnc(SCC(=O)Nc3ncc(C)s3)n2C)c1	nt	10%	-12%	3%	10%	-7.2%	-2%	?
CC1=C(C(N)=O)C(c2ccccn2)n2nc(SCc3ccccc3)nc2N1 (stereo not given)	-14%	4%	-23%	11%	-20%	-3.3%	-7%	-3%
CCOC(=O)C1CCN(c2c(C(=O)c3ccccc3)cnc3ccc(CC)cc23)CC1	-27%	0%	nt	-12%	9%	nt	nt	nt
COc1ccc(N2CCN(C(=O)c3cc(=O)c4cc(C)ccc4o3)CC2)cc1	-23%	-8%	?	-1%	15%	nt	nt	1%
CN1CCN(C(=O)c2cc(C(C)(C)C)cc(C(C)(C)C)c2)CC1	-6%	5%	?	0%	2%	nt	nt	-29%[46.1 µM]
COc1cccc(C(=O)N2CCC(c3nc4ccccc4s3)CC2)c1	-22%	nt	-28%[46.1 µM]	nt	nt	-6.0%	-6%	7%[46.1 µM]
Cc1[nH]n(-c2ccccc2)c(=O)c1C(c1cccc([N+](=O)[O-])c1O)c1c(C)[nH]n(-c2ccccc2)c1=O	?	-1%	0%	9%	-14%	-11%	-18%	-2%
O=C(CSc1nc2ccccc2s1)Nn1cnnc1	-5%	2%	7%	1%	21%	-5.1%	-10%	1%
CCOc1ccccc1C(=O)Nc1nncs1	nt	-4%	0%	-3%	-10%	3.8%	0%	1%
Cc1cc(C)cc(Oc2nc3c(C)cccn3c(=O)c2/C=C(\C#N)C(=O)NC2CCS(=O)(=O)C2)c1 (stereo not given)	22µM*	19%	?	3%	-6%	-2.5%	?	?
CCSc1ncc(Cl)c(C(=O)N(Cc2ccc(C(C)(C)C)cc2)C2CCS(=O)(=O)C2)n1 (stereo not given)	-15%	nt	?	nt	nt	-10%	7%	-28%[46.1 µM]
N/C(=N\OC(=O)CN1C(=O)c2ccccc2C1=O)c1ccc(Cl)cc1	63%[activator]	5%	nt	-1%	1%	nt	nt	nt
CCn1c(SCC(=O)NC(C)(C)C)nnc1-c1ccoc1C	-2%	13%	24%	-23%	-8%	0.4%	-4%	-13%
O=C(COc1cccc2cccnc12)N/N=C/c1ccc(O)cc1	0%	nt	2%	0%	-2%	nt	nt	-9%
Cc1cc(SCC(=O)NCCN2C(=O)CSC2=O)nc2c(C)cccc12	-10%	0%	0%	-12%	2%	-1.2%	-8%	13%
COc1cccc(CNCCSc2nnnn2C)c1OCc1ccccc1	-11%	nt	?	nt	nt	0.3%	-2%	?
CC(=O)NC(CC(=O)Nc1ccc(S(=O)(=O)N2CCCCC2)cc1)c1ccccc1 (stereo not given)	-5%	-5%	-2%	0%	10%[3.69 µM]	-1.0%	-1%	1%
COc1ccc(CN(C)C(=O)c2ccc(NC(=O)CC3SC(N4CCCC4)=NC3=O)cc2)c(OC)c1 (stereo not given)	2%	nt	-1%[46.1 µM]	-1%	-22%	nt	nt	-4%
CCc1ccc(CNC(=O)CCc2nnc(Cc3cccc(C(F)(F)F)c3)o2)nc1	-11%	0%	nt	-1%	-13%	nt	nt	nt
O=C(NNc1ccc([N+](=O)[O-])cc1)Nc1ccccc1	-6%	-21%	nt	-12%	3%	nt	nt	nt
Cn1cc(S(=O)(=O)N2CCOCC2)cc1C(=O)NCCc1ccccc1	7%	14%	nt	-1%	8%	nt	nt	nt
CCCN1CCc2c(sc(NC(=O)c3ccc(S(=O)(=O)N4CCCC4)cc3)c2C(N)=O)C1	-27%	6%	nt	-4%	-8%	nt	nt	nt
CC(C)c1ccc(C(=O)Nc2ccc(N3CCOCC3)cc2)cc1	-19%	8%	?	-8%	3%	-1.5%	-4%	-24%
SMILES	2A StopGo	NS1 inh	MARV entry inh	SARS PLpro yeast	RE007 growth inh	Cruzain inh Det	Cruzain inh noDet	Lassa entry inh
COc1cccc(CN(C)C(=O)Cc2c[nH]c3ccccc23)c1OC	23%	-3%	-17%[46.1 µM]	-2%	9%	nt	nt	?
COc1ccccc1Cc1nc2ccccc2n1S(=O)(=O)c1ccc(Cl)cc1	6%	-5%	-6%	0%	-14%	-5.1%	1%	0%
CC(=O)N1CCc2cc(S(=O)(=O)CCC(=O)NCc3ccco3)ccc21	-20%	nt	1%	2%	10%	nt	nt	-2%
COc1ccc(S(=O)(=O)NCC(c2ccc(C)cc2)N2CCN(C)CC2)cc1OC (stereo not given)	5%	nt	-18%	-6%	-3%	nt	nt	-11%
O=C(O)CCCCCNCc1ccncc1	5%	-9%	0%	2%	-8%	3.1%	2%	-4%
Cc1cccc(OCC(=O)N(Cc2sccc2C)C2CCS(=O)(=O)C2)c1 (stereo not given)	-10%	nt	-5%[46.1 µM]	nt	nt	-2.1%	11%	-13%[46.1 µM]
c1ccc(C2=Nc3cccc4cccc(c34)N2)cc1	?	-8%	-1%	?	-8%	-6.8%	?	0%
COc1cc(/C=C2/C(=N)N3OC(C)=CC3=NC2=O)ccc1OCCOc1ccc(C)cc1	-11%	18%	?	3%	19%	4.0%	0%	18%
Cc1ccc2nc(NC(=O)c3ccc(Cl)s3)sc2c1	9%	-5%	nt	6%	-14%	0.9%	13µM*	nt

As entered above:
c1ccc(C2=Nc3cccc4cccc(c34)N2)cc1 – Lassa entry inh = 0%
COc1ccc(S(=O)(=O)NCC(c2ccc(C)cc2)N2CCN(C)CC2)cc1OC (stereo not given) – 2A StopGo = 5%
